Source: PubChem BioAssay (National Center for Advancing Translational Sciences (NCATS))
Lassa entry inh: qHTS for Inhibitors of binding or entry into cells for Lassa Virus | Lassa virus pseudotype entry inhibition, cell reporter; control for the full effect not named in the record | actives 1.2% (n = 300,000) | Potency, µM (doses to about 37.9 µM), for the others: at the top dose activity change, negative = inhibition, actives largely listed as inhibitors; active means well fitted inhibition curve with a large enough effect; inconclusive means small, poorly fitted or top-dose-only effect, or effect the other way; inactive means flat fitted curve, though single readings scatter; tested in HEK293 cells; further: on the % scale 0 is the no-effect control and ±100 the full control effect; nearly all actives have a fitted effect of over 50% in size; luciferase read-out
NS1 inh: qHTS Assay for Inhibitors of Influenza NS1 Protein Function | actives 0.4% (n = 270,000) | AID 2326, 2010 | S. cerevisiae slowed by influenza A NS1, growth recovery by OD600 | Potency, µM (titrated, usually from 46.1 µM), without a hit: at the highest dose activity, positive = more growth; further: actives are rising curves; nearly all actives have a fitted effect of over 50% in size
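Growth recovery, yeast-based: influenza A NS1 expressed in S. cerevisiae causes slow growth, and suppressors are detected by OD600. The parent strain without NS1 is used as positive control.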
Cruzain Triton: qHTS Assay for Promiscuous and Specific Inhibitors of Cruzain (with detergent) | Cruzipain (Trypanosoma cruzi), P25779 | purified cruzain, Z-FR-AMC fluorescence, 0.01% Triton | Potency, µM, for inactives: max response, negative = inhibition, usual class: inhibitors | actives 0.43% (n = 200,000); active means well fitted curve in the direction sought with a large enough effect; inconclusive means small, poorly fitted or top-dose-only effect, or another doubt; inactive means no such curve, though single readings can be large; an effect the other way counts as inactive or inconclusive;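 further: plate controls were neutral wells for no effect and buffer without enzyme for full effect; nearly all actives have a fitted effect of over 40% in size; top concentration of the series not given in the record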
Target sequence (P25779 123-467 limits assumed): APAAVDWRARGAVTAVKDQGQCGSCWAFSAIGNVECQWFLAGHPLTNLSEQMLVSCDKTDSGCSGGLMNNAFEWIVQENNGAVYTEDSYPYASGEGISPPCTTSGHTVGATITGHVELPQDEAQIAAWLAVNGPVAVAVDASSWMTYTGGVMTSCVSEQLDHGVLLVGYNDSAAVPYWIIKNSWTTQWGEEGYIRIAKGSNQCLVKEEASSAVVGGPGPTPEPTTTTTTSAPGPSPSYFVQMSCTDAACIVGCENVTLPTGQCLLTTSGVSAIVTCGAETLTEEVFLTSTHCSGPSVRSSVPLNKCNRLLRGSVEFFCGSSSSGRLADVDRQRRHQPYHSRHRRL
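In this qHTS format, compounds are incubated with 1.5 nM cruzain for 15 min at room temperature before 2 uM Z-FR-AMC is added. Release of AMC is followed at 360/450 nm, and progress is taken as the 60 s fluorescence difference.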
RE007 growth inh: qHTS Assay for Inhibitors of the HIV-1 protein Vpr. S. pombe RE007 Vpr strain, BacTiter-Glo ATP luminescence, 24 h; control for the full effect not named in the record. actives 0.21% (n = 360,000). AID 651644, 2012. Potency, µM (highest dose often 92.2 µM), for the others: at the highest dose activity change, negative = less growth; active = well fitted falling curve with a large enough effect; inconclusive = small, poorly fitted or top-dose-only effect; inactive = no such curve, though single readings can be large or run the other way;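 further: on the % scale 0 is the no-effect control and ±100 the full control effect; nearly all actives have a fitted effect of over 50% in size; the assay follows cell death caused by Vpr and the record does not say whether a fall means rescue or toxicity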
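Fission yeast strain RE007, carrying one chromosomally integrated HIV-1 vpr copy, was seeded at OD 0.01 in PMG+AL medium with 23 nL pinned compound. After 24 h at 30 °C and 99% humidity, viability was read by BacTiter-Glo luminescence.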
SARS PLP yeast: qHTS of Yeast-based Assay for SARS-CoV PLP; actives 0.19% (n = 330,000); AID 485353, 2010; Potency, µM (doses to about 32.9 µM), for inactives: at the top dose activity, positive = growth rescue; S. cerevisiae expressing SARS-CoV PLpro, growth rescue; control for the full effect not named in the record; further: 0% is about no effect; nearly all actives have a fitted effect of over 55% in size; growth read by luminescence after 48 h
2A StopGo: High Throughput Screening for Foot and Mouth Disease Virus Antivirals; actives 1.2% (n = 410,000); Potency, µM (titrated, usually from 57.9 µM), for inactives: at the highest dose signal change, negative = less light; human cells with a luciferase reporter of 2A StopGo recoding; control for the full effect not named in the record; active = well fitted falling curve with a large enough effect; inconclusive = small, poorly fitted or top-dose-only effect; inactive = no such curve, though single readings can be large or run the other way; tested in HEK293T cells; further: on the % scale 0 is the no-effect control and ±100 the full control effect; nearly all actives have a fitted effect of over 45% in size; luciferase light after 4 h
Marburg entry inh: qHTS for inhibitors of binding or entry into cells for Marburg Virus. Marburg virus pseudotyped entry inhibition, cell reporter; control for the full effect not named in the record; about a third of the inactives were read at about 46 µM. Potency, µM (doses to about 37.8 µM), for the others: at the top dose activity change, negative = inhibition, actives largely listed as inhibitors. actives 1.8% (n = 300,000). AID 540276, 2011; active = well fitted inhibition curve with a large enough effect; inconclusive = small, poorly fitted or top-dose-only effect, or effect the other way; inactive = flat fitted curve, though single readings scatter; tested in HEK293 cells; about a fifth of its hits are not listed in these tables; further: on the % scale 0 is the no-effect control and ±100 the full control effect; luciferase read-out
Cruzain inh noDet: qHTS Assay for Promiscuous and Specific Inhibitors of Cruzain (without detergent). Cruzipain (Trypanosoma cruzi), P25779. purified cruzain, Z-FR-AMC fluorescence, no detergent. Potency, µM, for the others: max response, negative = inhibition, actives largely listed as inhibitors. actives 2.3% (n = 200,000). AID 1476, 2009; active means well fitted curve in the direction sought with a large enough effect; inconclusive means small, poorly fitted or top-dose-only effect, or another doubt; inactive means no such curve, though single readings can be large; an effect the other way counts as inactive or inconclusive;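 further: plate controls were enzyme without inhibitor for no effect and buffer without enzyme for full effect; nearly all actives have a fitted effect of over 40% in size; top concentration of the series not given in the record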
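Detergent-free condition (0.00005% Triton X-100) in acetate buffer pH 5.5 with DTT. 1.5 nM enzyme and compound were pre-mixed 15 min, then 2 uM Z-FR-AMC substrate added; reaction progress from fluorescence change between first and third reads (60 s).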
* marks the source's active call; other numbers are inactive results; ? = inconclusive; · = no result given; & = joins results of further samples; [ ] = remark or other dose. Unless noted, the call rests on the fitted dose curve; in most records, active means well fitted rising curve with a large enough effect; inconclusive means small, poorly fitted or top-dose-only effect; inactive means no such curve, though single readings can be large or run the other way. Potency means the concentration at half of the fitted maximal effect.

SMILES | Lassa entry inh | NS1 inh | Cruzain Triton | RE007 growth inh | SARS PLP yeast | 2A StopGo | Marburg entry inh | Cruzain inh noDet
Cn1cnc([N+](=O)[O-])c1Sc1ccc(C(C)(C)C)cc1 | -45% | 4% | · | 46% | 1% | ? | -14%[14.2 µM] | ·
Fc1cccc(/C=N/n2c(C3CCCCC3)n[nH]c2=S)c1 | · | 6% | · | -5% | -2% | -12% | · | ·
O=C(NCc1ccc2c(c1)OCO2)c1ccc2c(=O)n(C3CCCC3)c(=O)[nH]c2c1 | 14% | 3% | -1.8% | -7% | -1% | 8% | ? | -13%
COc1ccccc1-n1c(O)c(C=NCCCn2ccnc2)c(=O)[nH]c1=O | -4% | -6% | 7.1% | -1% | -2% | 1% | -1% | 3%
CCOc1ccc(CCNC(=O)CCc2nnc3ccc(N4CCOCC4)nn23)cc1OCC | · | 6% | · | -7% | 4% | 0% | · | ·
Cn1nc([N+](=O)[O-])nc1Oc1ccccc1C(=O)N1CCOCC1 | 1% | · | · | 22% | 0% | -8% | 2%[46.1 µM] | ·
O=C(NC1CCOc2ccccc21)c1ccc(=O)[nH]c1 (stereo unspecified) | 8% | 12% | · | 3% | 0% | -2% | 6% | ·
CCN(CC)CCOC(=O)c1ccc(N/C=C(/C#N)c2nc(-c3ccc(OC)cc3)cs2)cc1 | 18% | 10% | · | 0% | 2% | -6% | 4µM* | ·
COCCCn1c(=O)/c(=C\c2cccc(OC)c2OC)s/c1=C(/C#N)C(=O)Nc1ccc(C(=O)O)cc1 | · | -20% | · | -10% | 1% | 2% | · | ·
CC(=O)C1=C(C)N(Cc2ccccc2)C(=O)N[C@H]1c1cccs1 | 0% | 0% | 0.3%&-0.2% | 0% | -4% | -2% | 4%[14.2 µM] | -6%&-12%
N/C(=N\OC(=O)c1ccccc1Cl)c1ccccc1 | ? | -29% | -5.2% | -21% | 6% | -63% | ? | 1%
COC(=O)c1cc(OC(=O)c2ccc(=O)[nH]c2)cc(C(=O)OC)c1 | 7% | -3% | · | 15% | 0% | 9% | 2%[46.1 µM] | ·
O=S(=O)(Nc1ccncc1Cl)c1cccc(Cl)c1Cl | 8%[46.1 µM] | -4% | · | -9% | 0% | 11% | 15%[46.1 µM] | ·
CCCc1ccc2oc(C(=O)N3CCC(O)CC3)c(C)c2c1 | · | -25% | · | 6% | 1% | 18% | · | ·
COC(=O)c1ccc(Nc2ncnc3c2cnn3C)cc1 | 8%[46.1 µM] | · | 0.9% | · | · | 4% | · | 0%
COc1cccc(C(=O)OCCN2CCOCC2)c1 | · | 4% | · | 1% | 0% | 42%[activator] | · | ·
CC(O)[C@H]1CNC(=O)C(=O)N1CCc1cc(C(F)(F)F)cc(C(F)(F)F)c1 (stereo partly specified) | · | -5% | · | 4% | 0% | -12% | · | ·
O=C(CCCCCNc1nc(=S)[nH]c2ccccc12)N1CCN(c2ccccn2)CC1 | · | -23% | -3.8% | · | -1% | · | · | 3%
Cc1nc(COc2ccccc2Cl)sc1-c1ccnc(N)n1 | -6% | -2% | · | 15% | -7% | 12% | ? | ·
COc1ccc(/C=N\NC(=O)CNC(=O)C2COc3ccccc3O2)cc1[N+](=O)[O-] (stereo unspecified) | · | -6% | · | -14% | 0% | -15% | · | ·
CC1(c2ccc3noc(-c4cccc(F)c4)c3c2)OCCO1 | -12% | · | · | 9% | 0% | ? | ? | ·
Cc1cccc(N(CC(=O)NC2CCCCC2)C(=O)CCC(=O)Nc2nccs2)c1 | ? | 8% | · | 15% | 0% | -6% | -25%[46.1 µM] | ·
COc1ccc(S(=O)(=O)N2CCOC2CNC(=O)C(=O)NCCc2ccc(S(N)(=O)=O)cc2)cc1 (stereo unspecified) | · | 7% | · | -6% | -1% | -20% | · | ·
COC(=O)c1ccc2c(c1)C(=O)/C(=C/c1ccc(C)cc1)O2 | 17% | 10µM* | -1.0% | 4% | ? | 4% | -1% | 18%
Cc1ccc(C)c(-c2cc(C(=O)NN3CCOCC3)c3ccccc3n2)c1 | ? | -2% | · | 3% | 1% | -5% | ? | ·
CC1CCN(C(=O)Cn2cc(S(=O)(=O)CC(=O)N3CCOCC3)c3ccccc32)CC1 | -20% | · | · | -8% | · | -10% | 25% | ·
COc1cc(OC)nc(Oc2ccccc2C(=O)Oc2cccc(C)c2)n1 | 13% | -45% | -0.8% | 0% | -7% | · | -12% | 5%
COc1cc([N+](=O)[O-])cc(/C=N/NC(=O)c2ccc(C)nc2)c1O | ? | 11% | -4.4% | 8% | 8.9µM* | -1% | ? | 20%
CN1CCc2c(sc(NC(=O)CSc3ccc(F)cc3)c2-c2nc3ccccc3s2)C1 | 1%[46.1 µM] | · | -4.7% | · | · | -11% | · | -7%
Cc1ccc(NC(=O)COC(=O)C2CC2)cc1Cl | ? | · | · | 32% | 1% | 18% | -3% | ·
Cc1ccc(Cc2cnc(NC(=O)/C(C#N)=C/c3ccc(-c4ccccc4[N+](=O)[O-])o3)s2)cc1 | -3% | 13% | -0.7% | -18% | 0% | -22% | -12% | 10µM*
COc1ccc(NC(=O)Cc2csc(COc3cccc(C)c3)n2)cc1OC | -3%[46.1 µM] | · | -7.1% | · | · | ? | 0%[46.1 µM] | ?
Cc1ccc(C)c(NC(=O)C2CC(O)CN2C(=O)OCc2ccccc2)c1 (stereo unspecified) | 9% | -4% | 0.1% | -8% | 8% | -19% | 1% | 9%
Cc1ccc(S(=O)(=O)N2CCN(c3ncnc4sccc34)CC2)cc1 | · | -51% | · | -7% | -9% | ? | · | ·
OC1(Cc2ccccc2)CCNCC1 | 8% | -1%&2% | · | -2% | -1%&-2% | 1% | ? | ·
COc1ccc(N2C(=O)C3[C@@H](C2=O)C2(Cl)C(Cl)=C(Cl)C3(Cl)C2(OC)OC)cc1 (stereo partly specified) | 5% | 3% | -5.9% | 14% | 13% | -18% | -6% | -3%
CCCC(=O)N(CCN1CCOCC1)c1nc2c(C)ccc(C)c2s1 | · | -18% | · | -5% | 0% | -20% | · | ·
Cc1cccc(Oc2cnn(C(C)(C)C)c(=O)c2Cl)c1 | -22% | -13% | -2.7% | -29% | 7% | ? | 12% | -16%
COc1cccc(OC)c1OCCNCCO | -11% | 5%[9.22 µM] | 2.6% | 7% | -5% | -5% | -3% | 3%
CCOC(=O)N1CCN(c2c(NCCCOC(C)C)c(=O)c2=O)CC1 | · | -14% | -5.8% | -10% | 1% | -21% | 1% | 3%
CCCN1CCC(NC(=S)Nc2ccc(S(N)(=O)=O)cc2)CC1 | 7% | 5% | · | -2% | 1% | -4% | 5%[46.1 µM] | ·
Cc1ccc2c(c1)cc(C(=O)NCc1ccc(F)cc1)n2C | 2µM* | · | 0.1% | · | · | -9% | ? | -12%
CCCOP(=O)(OCCC)C(NC(=O)C(C)(C)C)c1ccccc1 (stereo unspecified) | ? | 7% | 4.2% | 16% | 17% | -14% | 0% | -1%
COc1ccc(CNC(=O)c2cnn(-c3ccc(F)cc3)c2-n2cccc2)cc1 | 8%[46.1 µM] | · | -8.3% | · | · | -18% | · | -1%
CCOC(=O)c1c(C)[nH]c(CCC(=O)Nc2c(C)cccc2CC)c1C | -2%[46.1 µM] | · | 2.8% | · | · | -26% | · | 11%
CCC(=O)Nc1c(-c2ccc(C)cc2)c(=O)c2ccccc2n1C | 1%[46.1 µM] | 1% | · | 3% | -1% | -1% | ? | ·
CCN1CCc2c(OCc3ccc(C)cc3)cccc2C1=O | 10% | · | · | 3% | -5% | 2% | 24%[46.1 µM] | ·
O=C(Nc1ccc(N2CCCC2)c(Cl)c1)c1cccnc1 | -1% | ? | -12% | 4% | -9% | 24% | -13% | 3%
CCN(C(=O)CSc1nc2ccccc2n1CC(=O)Nc1cccc(C#N)c1)c1ccccc1 | ? | · | -3.2% | · | · | -2% | · | 0%
COc1ccc(CNC2CCCc3ccccc32)cc1OC (stereo unspecified) | 6% | 1% | -1.5% | -4% | -15% | -15% | ? | -5%
O=C(NCc1ccc2c(c1)OCO2)C1CCN(S(=O)(=O)c2ccc(F)cc2)CC1 | · | 12% | · | -10% | 3% | -15% | · | ·
COc1ccc(N2CCN(CC(=O)Nc3nc(C)cs3)CC2)cc1 | -25% | -14% | · | -20% | 2% | -10% | -19% | ·
COc1ccc(OCCNC(=O)C(c2ccccc2)c2ccccc2)cc1 | 0% | 6% | 6.9% | 10% | 3% | ? | ? | -8%
Cc1ccc(C(=O)N/N=C\c2cccs2)cn1 | 10% | · | · | -1% | 0% | 52%[activator] | 2%[46.1 µM] | ·
CC(=O)c1ccc(OCCCC(=O)Nc2ccc(C)c(S(=O)(=O)N3CCOCC3)c2)cc1 | -15% | · | · | 14% | 5% | ? | ? | ·
CN1CCN(Cc2ccc(N)cc2)CC1 | · | 1% | · | 6% | -1% | 10% | · | ·
CCOCCCNC(=O)CN1C(=O)COc2ccc(S(=O)(=O)N3CCOCC3)cc21 | 6%[46.1 µM] | -5% | 3.9% | 1% | -2% | -3%&-15% | 9%[46.1 µM] | -6%
COc1ccc(C(C)=O)cc1COC(=O)c1cc(C)oc1C | -11% | -41% | ? | 0% | 4% | -7% | -12% | -16%
CC(=O)Nc1ccc(C(=O)OCC(=O)N2CCCC2=O)cc1 | 14% | · | · | -4% | -3% | 21% | 20% | ·
O=C(Nc1ccc2nc3n(c(=O)c2c1)CCCCC3)c1ccccc1Cl | · | -45% | -8.9% | -1% | -5% | 24% | · | 4%
Cc1ccc(CNc2nc3c([nH]2)c(=O)n(C)c(=O)n3C)cc1 | 13% | 3% | 6.0% | -2% | 1% | ? | ? | 3%
O=C(Nc1ccc(S(=O)(=O)N2CCOCC2)cc1)C1CC(=O)N(c2ccc(F)cc2)C1 (stereo unspecified) | 14% | ? | · | 0% | -1% | 16% | ? | ·
O=C(CSc1nc(-c2ccccc2)nc2c1CCCC2)N1CCOCC1 | 4% | -21% | 0.3% | 34% | 1% | 0% | 7% | ?
